RN4220 kill: kills Staphylococcus aureus RN4220. AID 1259311. S. aureus RN4220 growth, OD600, 16 h. inhibition, % (concentration not given with the values). hit rate 0.33% among 330,000;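 active means z-score of -3 or lower and OD600 up to 0.18 on both plates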;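 further: plate controls were untreated cells for no effect and reference antibiotic for full effect; stock transfer was 100 nL into about 80 µL; one replicate is shown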
Autofluor counter: counter-screen for toxin protease inhibitors: compound fluorescence | fluorescence intensity (no concentration beside the values) | hit rate 3.1% among 360,000 | compound autofluorescence counterscreen, microsphere flow cytometry; active compounds read high;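 active means at least 3 SD above the mean of all compounds, about 16000 in these data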;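 further: 100 nL of 1 mM stock went into each well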
PrP 5UTR inh: inhibition of PrP 5' UTR reporter expression; hit rate 0.35% among 340,000; inhibition, % (concentration not given with the values); cell-based PrP 5' UTR mRNA reporter, plate reader;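 active means every replicate at 50% or more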;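 further: 0 = median of the neutral control wells; tested in H4 reporter cells; numbers are from one replicate; inactives centre near -14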
BJeLR lethal: BJeLR cell viability loss. BJeLR (HRASV12) viability, CellTiter-Glo ATP luminescence, 48 h; reference of the scale not given here. inhibition, % (no concentration beside the values). hit rate 0.17% among 300,000;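 active means replicate mean above 50%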;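 further: 50 nL library stock added to about 25 µL; numbers are from one replicate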
Mtb hypoxia rep: reduces hypoxia-regulated biosensor signal in M. tuberculosis; M. tuberculosis hypoxia-regulated fluorescent reporter, fluorescence; fluorescence inhibition, % (test concentration not listed); hit rate 0.1% among 300,000;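 active means 35 to 45% if threefold the growth effect, above 45% if 1.5-fold the growth effect; inactive means the rest, general growth blockers included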;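 further: wells of about 50 µL received 100 nL stock; 0% = vehicle wells and 100% = reference inhibitor wells; whole bacteria with a GFP reporter of the hypoxia response; strong numbers were not always called active; many hits fall short of the cut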
ugtP null kill: kills S. aureus RN4220 lacking UgtP; S. aureus RN4220 ugtP deletion, OD600 growth, 16 h; some inactives read as strong as hits; growth inhibition, % (test concentration not listed); hit rate 0.54% among 330,000; AID 1259309;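 active means z-score under -3 and OD600 up to 0.15 on both plates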;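 further: plate controls were untreated wells for no effect and antibiotic for full effect; wells of about 80 µL received 100 nL stock; the first replicate is given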
Mtb hypoxia rep growth: second read-out of Mtb hypoxia rep, no call of its own (marks repeat the call); growth inhibition, %; measured here: M. tuberculosis growth (absorbance);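 0% = vehicle and 100% = reference antibiotic; read after six days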
* hit, by the source's call; . = no result given.

Each structure is followed by: RN4220 kill	Autofluor counter	PrP 5UTR inh	BJeLR lethal	Mtb hypoxia rep	Mtb hypoxia rep growth	ugtP null kill
#1 COc1cccc(C(=O)Nc2ccccc2)c1
 : 9.1	3936	-26	-2	8	1	0
#2 CCNc1nc(NCC)nc(NS(=O)(=O)c2ccc(N)cc2)n1
 : 2.7	2936	-4	-11	3	1	8
#3 COCCn1c(SCc2nc3scc(-c4ccc(Cl)cc4)c3c(=O)[nH]2)nnc1-c1cccc(C)c1
 : -3.8	2615	-26	-7	-12	-9	-30
#4 C=CCn1cnc2c(sc3nc(C)cc(C)c32)c1=O
 : 6.8	4552	-44	-4	11	-3	-3
#5 CCN1CCCC1CN(Cc1cc2ccc(C)cc2[nH]c1=O)C(=S)Nc1ccccc1C(=O)OC (centres undefined)
 : -0.3	5052	-35	3	4	4	-4
#6 Cc1ccc(S(=O)(=O)N2CCN(C(=O)COC(=O)c3oc4ccccc4c3C)CC2)cc1
 : 2.5	6437	-16	-8	-5	0	5
#7 CC(C)(C)c1ccc(S(=O)(=O)N2CCN(Cc3cc4c(cc3O)OCO4)CC2)cc1
 : 3.5	3995	-20	.	17	9	7
#8 O=C1[C@H]2[C@@H](c3ccc(F)cc3)N3C(=O)N(c4cccc(F)c4)C(=O)[C@@]3(Cc3ccc(Cl)cc3)[C@H]2C(=O)N1C1CCCCC1
 : .	4037	-11	0	.	.	.
#9 COc1cc2c(cc1OC)CN(C(=O)COc1ccccc1[N+](=O)[O-])CC2
 : 2.6	3519	2	-5	1	2	5
#10 CCOC(=O)c1ccc(NC(=O)CSc2nnnn2C2CCCCC2)cc1
 : 0.4	2973	-35	0	.	.	-4
#11 CCSC1=N/C(=C\c2ccccc2)C(=O)N1
 : .	2723	-28	14	.	.	.
#12 Cc1ccc(S(=O)(=O)N(C)CC(=O)N2CCCc3ccccc32)cc1
 : 5.4	4329	-23	-10	3	4	2
#13 CCN(CC)Cc1c(O)ccc2c([N+](=O)[O-])c(C)n(-c3ccc(OC)cc3)c12
 : 1.0	2318	5	10	.	.	0
#14 COc1ccc(OC)c(S(=O)(=O)Nc2c(C)n(C)n(-c3ccccc3)c2=O)c1
 : .	3746	-17	3	.	.	.
#15 COc1ccc(NC(C)=O)cc1S(=O)(=O)NCCc1ccccn1
 : 3.2	3599	-22	.	5	2	-1
#16 Cc1ccc(-c2cnc(-c3ccccc3C(=O)O)o2)cc1
 : 0.6	3602	-24	3	8	8	6
#17 Cc1cc(C)cc(N(C(=O)c2csnn2)C(C(=O)NC2CCCCC2)c2ccncc2)c1 (centres undefined)
 : 0.7	3740	-2	-1	-3	-3	4
#18 O=C1NCC(c2ccccc2)C1C(=O)NN=Cc1ccc(-c2ccc(Cl)c(Cl)c2)o1 (centres undefined)
 : -19	.	.	.	14	2	-5
#19 NC(=S)N=Nc1c(O)n(CCCl)c2ccccc12
 : 1.7	4933	0	3	1	13	-8
#20 O=C(N/N=C/c1ccsc1)c1cc2ccccc2o1
 : .	5722	-32	4	.	.	.
#21 O=C(N/N=C/c1ccccc1Cl)C1CC1
 : .	4100	-8	7	.	.	.
#22 O=C(NN=Cc1cccc(C(F)(F)F)c1)c1ccc(O)cc1
 : 1.1	.	.	.	1	2	7
#23 COCCNC(=O)NC(=O)COC(=O)C1(c2ccc(Cl)cc2)CC1
 : 4.8	4225	-4	-7	1	7	7
#24 CN1CCN(C(=O)C2CCN(S(=O)(=O)c3ccc(F)cc3)CC2)CC1
 : -0.4	5693	-9	-7	0	8	11
#25 C=CCn1c(=O)c(C(=O)NCc2ccccc2Cl)c(O)c2ccccc21
 : 2.2	3925	-16	-3	-7	6	16
#26 COC(=O)CNc1c(-c2ccccc2)nc2ccc(Br)cn12
 : 2.3	4227	-28	3	-2	6	-10
#27 O=C(Nc1nc2nccc(-c3ccccc3)n2n1)c1ccccc1
 : 3.5	.	-103	5	0	-9	13
#28 CC1CCc2c(sc(NC(=O)c3c([N+](=O)[O-])cnn3C)c2C(N)=O)C1 (centres undefined)
 : 3.8	6073	-24	.	1	8	0
#29 O=C1C(Cc2ccccc2)S/C(=N/N=C/c2ccco2)N1c1ccccc1 (centres undefined)
 : .	2945	-21	6	.	.	.
#30 S=P1(Oc2ccccc2)Nc2ccccc2N1
 : 3.4	3989	-1	.	4	15	2

The closing 5 records of the section above open the next one.
Each structure is followed by: RN4220 kill	Autofluor counter	PrP 5UTR inh	BJeLR lethal	Mtb hypoxia rep	Mtb hypoxia rep growth	ugtP null kill
#26 COC(=O)CNc1c(-c2ccccc2)nc2ccc(Br)cn12
 : 2.3	4227	-28	3	-2	6	-10
#27 O=C(Nc1nc2nccc(-c3ccccc3)n2n1)c1ccccc1
 : 3.5	.	-103	5	0	-9	13
#28 CC1CCc2c(sc(NC(=O)c3c([N+](=O)[O-])cnn3C)c2C(N)=O)C1 (centres undefined)
 : 3.8	6073	-24	.	1	8	0
#29 O=C1C(Cc2ccccc2)S/C(=N/N=C/c2ccco2)N1c1ccccc1 (centres undefined)
 : .	2945	-21	6	.	.	.
#30 S=P1(Oc2ccccc2)Nc2ccccc2N1
 : 3.4	3989	-1	.	4	15	2
#31 COc1cc(/C=C2\C(=N)N3N=C(C(C)C)SC3=NC2=O)ccc1OCCOc1ccc(NC(C)=O)cc1
 : -0.7	3768	-4	9	-8	4	2
#32 COc1ccc(C2=C/C(=C\c3ccc(OC(C)=O)cc3)C(=O)O2)cc1
 : -5.2	4413	-16	-1	12	8	-71
#33 CC(=O)c1nn(-c2cccc(Br)c2)cc1C(=O)c1ccc(Cl)cc1
 : .	2084	-5	-3	.	.	.
#34 O=C(O)c1cccnc1SCC(=O)N1CCCc2ccccc21
 : 4.7	4415	-12	-2	2	-5	1
#35 CCC(=NNC(=O)CCC(=O)NCc1ccccc1)c1ccc(O)cc1
 : 0.7	.	.	.	7	-4	3
#36 Cc1ccc(OCCCN2CCCC2)c(C)c1
 : 8.0	3212	-27	4	9	-2	13
#37 CC(C)CNC(=O)C1Nc2ccc(C(F)(F)F)cc2C2C=CCC12 (centres undefined)
 : 4.2	3503	-30	-7	1	8	-2
#38 COC(=O)N1CCN(S(=O)(=O)c2ccc(F)cc2)CC1
 : 1.6	11013	4	-2	6	7	2
#39 CCOC(=O)c1c(C(=O)OCC)c(C)n(CCc2ccccc2)c1C
 : 2.8	2237	-23	5	0	1	8
#40 CN1N=C(C(=O)Nc2ccc3c(c2)CCC3)CCC1=O
 : 3.2	4586	-39	14	-3	9	0
#41 CN(CC(=O)NCCc1ccccc1)S(=O)(=O)c1cccc2nsnc12
 : 1.0	8159	-26	0	8	-4	11
#42 CC1CN(C2=NC(=O)/C(=C3/C(=O)N(Cc4ccc(F)cc4)c4ccccc43)S2)CC(C)O1 (centres undefined)
 : 5.3	4079	-43	-4	11	-1	12
#43 CCCn1ncc2c(Nc3ccc(C)c(C)c3)ncnc21
 : 16	6190	-25	-11	2	16	13
#44 Cn1cccc1CC(=O)NN=Cc1ccc(C(C)(C)C)cc1
 : 3.4	.	.	.	-5	-5	9
#45 c1ccc(-c2csc(Nc3cccnc3)n2)nc1
 : 1.0	8285	.	-2	6	11	14
#46 CC1CCN(C(=O)c2[nH]cnc2C(=O)Nc2ccc(Cl)cc2)CC1
 : -3.2	3980	0	.	3	4	0
#47 COc1cccc(N=C2SC(CC(=O)Nc3ccccc3)C(=O)N2Cc2ccccn2)c1 (centres undefined)
 : 5.9	4497	-23	-1	12	-2	5
#48 CC(C)CC1NC(=O)C(C(C)C)NC(=O)c2cc([N+](=O)[O-])cc(I)c2NCCC(C(N)=O)NC1=O (centres undefined)
 : 1.5	.	.	.	-3	13	5
#49 Cc1ccccc1-n1nc(C)c2cc(C(=O)NCc3cccnc3)sc21
 : -9.3	10567	-10	-5	-10	2	32
#50 CCC1=C(OC(=O)N(CC)CC)N2C(=O)OC(=NCc3ccccc3)[C@]2(C)[C@H]2C1=CC[C@H]1C(=O)N(c3ccccc3)C(=O)[C@H]12
 : .	3983	4	3	.	.	.
#51 COc1cc(/C=C(\C#N)C(=O)NC2CCCCC2)ccc1OCc1ccc(C(=O)O)cc1
 : 17	4823	-48	-1	-5	-7	15
#52 O=c1[nH]c(CSc2nc3ccccc3o2)nc2c1cnn2-c1ccccc1
 : 5.7	2373	-11	-5	7	7	37
#53 COc1ccc(NC(=O)CN(C)Cc2c(F)cccc2Cl)cc1S(=O)(=O)N1CCCCC1
 : 3.9	3365	15	-1	8	6	9
#54 CNc1cc(C)c(C#N)c2nc3ccccc3n12
 : -2.5	3969	-17	-4	22	14	9
#55 Cc1ccccc1CC1(CO)CCCN(C(=O)CCCN2CCCCC2=O)C1 (centres undefined)
 : 2.2	3364	10	6	2	6	5
#56 CC(C)n1c(/C=C/c2ccccc2)nc2ccccc21
 : .	9873	-70	-20	.	.	.
#57 Cc1ccc(NC2=CC(=O)CC(C)(C)C2)cc1F
 : 5.1	4175	-19	4	0	6	17
#58 COc1ccc(NC(=O)c2ccc(NC(=O)C3CC3)cc2)cc1
 : 8.9	6202	-5	1	1	4	7
#59 CC[C@@H](C)[C@H](NC(=O)C1CCN(C(=O)[C@@H](NS(=O)(=O)c2ccc(C)cc2)C(C)C)CC1)C(=O)O
 : .	2537	-6	-9	.	.	.
#60 C=CCOc1ccc(C2C(C#N)=C(N)N(Nc3ccccc3)C3=C2C(=O)CCC3)cc1OC (centres undefined)
 : -6.2	3289	-33	-5	6	13	12
#61 CSc1cccc(NC(=O)CCCOc2ccccc2)c1
 : 5.6	2470	-10	-2	2	7	0
#62 O=C(CCl)N(c1ccccc1)C1CCS(=O)(=O)C1 (centres undefined)
 : 3.0	2488	-5	4	.	.	6
#63 Cc1ccc(N(Cc2ccc(C(=O)NC3CCCCC3)cc2)S(C)(=O)=O)cc1C
 : 2.4	4041	-7	0	5	2	17
#64 COc1cc(C=NNC(=O)Cn2cnc3c2c(=O)n(C)c(=O)n3C)cc(OC)c1OC
 : 3.5	.	.	.	4	10	6
#65 CCOC(=O)C(c1ccccc1)C(Nc1ccc(F)cc1)c1ccccn1 (centres undefined)
 : -0.3	3899	-14	6	4	-3	5
#66 COc1ccccc1NS(=O)(=O)c1cc(NC(=O)c2ccc(=O)[nH]c2)ccc1N1CCOCC1
 : 2.0	2536	-14	1	2	2	-3
#67 CN1C(=O)c2ccc(N3CCCC3)cc2C1=O
 : 4.1	10771	-26	3	6	13	-1
#68 Cc1ccc(S(=O)(=O)NC(=S)NC2CCCCC2)cc1
 : 4.7	4459	-50	1	-10	3	0
#69 CCN(CC)S(=O)(=O)c1ccc(OC)c(NS(=O)(=O)c2ccc(F)cc2)c1
 : 4.3	4588	-9	-3	-1	5	-2
#70 O=C(COC(=O)c1cc(S(=O)(=O)N2CCCCC2)ccc1Cl)NC1CCS(=O)(=O)C1 (centres undefined)
 : 5.3	3895	-21	.	11	6	2
#71 Cn1c(=O)c2cc(S(=O)(=O)NCCC(=O)NC3CCCCCCC3)ccc2n(C)c1=O
 : 3.3	8026	-13	-7	-1	7	4
#72 CSCCC(NC(=O)c1ccccc1Br)C(=O)N1CCN(C(C)=O)CC1 (centres undefined)
 : 4.0	3753	-31	.	8	1	9
#73 COc1ccc(Br)c(OC)c1C(=O)NC(=O)Nc1nc(C)cc(C)n1
 : 10	6056	-14	-8	5	11	7
#74 CCN(C(=O)c1ccco1)c1nnc(-c2cccnc2)s1
 : -0.6	5943	-62	10	4	12	3
